Screening results: PubChem, National Center for Advancing Translational Sciences (NCATS)
HTT promoter inh: Primary qHTS for Identification of Small Molecule Inhibitors of Huntingtin Promoter Activity. HEK293 HTT promoter firefly luciferase reporter (activity 0% = vehicle and -100% = no light), 24 h. Potency, µM (highest dose often 57.5 µM), inactives show at the top dose activity change, negative = inhibition, usual class: inhibitors. 0.93% of 48,000 active; active = well fitted inhibition curve with a large enough effect; inconclusive = small, poorly fitted or top-dose-only effect; inactive = no such curve, though single readings can be large or run the other way; note: nearly all actives have a fitted effect of over 50% in size
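Firefly luciferase readout (Dual-Glo, 10 min RT) after 24 h, 37 °C compound exposure (final up to 57.5 uM) of HEK293 reporter cells cultured 24 h beforehand; PTC124 at 50 uM final as control inhibitor; activity scaled vehicle 0%, zero RLU -100%.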
PMP22 txn prim: Cell-based coincidence reporter assay to measure PMP22 gene transcription in S16 Pmp22-F2sN cells - Primary screen. S16 Pmp22-F2sN Schwann cells (luciferase reporters placed in the Pmp22 gene), FLuc/NLuc coincidence luminescence, 24 h. Potency, µM (titrated, usually from 57.5 µM), inactives show at the top dose activity change, negative = inhibition, actives largely listed as inhibitors. 2% of 43,000 active; active = clear falling dose curves in both reporters; inconclusive = both reporters move, but less clearly or upward; inactive = either reporter flat; the % is the NLuc reporter signal; note: % is set by controls: 0 for no effect and ±100 for the full control effect; some results filed as inactive show a strong effect at the top dose
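Rat S16 Pmp22-F2sN cells, 500-1,000/well in phenol red-free DMEM + 10% FBS, compound-treated 24 h (37C, 5% CO2). Luminescence: FLuc read, Stop&Glo added, NLuc read.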
Starred values were filed as active, the others as inactive; ? = inconclusive; . = no result given; & = joins results of further samples; [ ] = dose if it differs, or a comment. Potency is the fitted concentration of half-maximal effect. Compounds were not picked by outcome; 2.4% or so of the library scored in one or more.

Sample of the layout:
SMILES | HTT promoter inh | PMP22 txn prim
Cc1ccc(Nc2c(-c3ccc(O)cc3)nc3cccc(C)n23)cc1 | 0% | -11%
CC(C)(C)OC(=O)N1CCC(c2c(C(=O)NCCCN3CCc4ccccc4C3)cnn2-c2ccccc2)CC1 | -8% | ?
CCCCN(CC)CCCNC(=O)c1cc2c(-c3ccc(OC)c(OC)c3)nn(C)c2s1 | 10% | 7%
CC(=O)Nc1ccc(S(=O)(=O)NCc2cccn2Cc2cccc(C)c2)cc1 | -22% | -1%
COc1cc(NC(=O)CCn2c(=O)oc3ccccc32)cc(OC)c1OC | -9% | 4%

The whole of this part, from the first entry:
SMILES | HTT promoter inh | PMP22 txn prim
Cc1ccc(Nc2c(-c3ccc(O)cc3)nc3cccc(C)n23)cc1 | 0% | -11%
CC(C)(C)OC(=O)N1CCC(c2c(C(=O)NCCCN3CCc4ccccc4C3)cnn2-c2ccccc2)CC1 | -8% | ?
CCCCN(CC)CCCNC(=O)c1cc2c(-c3ccc(OC)c(OC)c3)nn(C)c2s1 | 10% | 7%
CC(=O)Nc1ccc(S(=O)(=O)NCc2cccn2Cc2cccc(C)c2)cc1 | -22% | -1%
COc1cc(NC(=O)CCn2c(=O)oc3ccccc32)cc(OC)c1OC | -9% | 4%
CCC(=O)N1c2ccccc2CC1C(=O)N1CCN(c2ccccc2F)CC1 (stereo not drawn) | 4% | 0%
COc1ccc(OC)c(NC(=O)c2oc(=O)c3ccccc3c2-c2ccccc2)c1 | ? | ?
O=C(CSCc1nc2cccnc2n1C1CCCCC1)NCc1cccc(Br)c1 | -15% | ?
Cc1ccc(NC(=O)c2c(C)nc3sc(C(=O)Nc4ccc(F)cc4)c(N)c3c2-c2ccccc2Cl)c(C)c1 | -18% | -17%
CCc1cc2c(cc3c(=O)n(CC(=O)NC4CCCCC4)ncn32)s1 | 3% | -1%
Cc1cccc(C)c1OCc1cc(=O)n2c(-c3ccccc3)csc2n1 | -20% | ?
COc1cc2c(cc1OC)[C@@H]1C(=O)c3ccc4c(c3O[C@@H]1CO2)C=CC(C)(C)O4 | ? | .
COc1ccc(-c2nc(CCNC(=O)c3c(F)cccc3Cl)cs2)cc1 | ? | -46%
CCC1CCCCN1C(=O)c1nn(-c2ccc(OC)cc2)c(=O)c2c1c1ccccc1n2C (stereo not drawn) | -15% | ?
COc1ccc(OCC(O)Cn2c(NCCO)nc3c2c(=O)n(C)c(=O)n3C)cc1 (stereo not drawn) | 14µM* | ?
CCCC(=O)C1=C(c2ccc(C)c(C)c2)N(C(=O)CCC)n2c(CC)nnc2S1 | -29% | ?
Cc1ccc(CCNC(=O)c2ccc(CSCc3ccccc3Cl)o2)cc1 | -23% | -33%
COc1ccccc1N1CCN(C(=O)c2cc3c(=O)n(Cc4cccs4)ccc3nc2C)CC1 | -29% | -24%
Cc1ccc(NC(=O)CSc2nnc(-c3ccc(Br)cc3)o2)c(C)c1 | -10% | -4%
COc1ccccc1CNC(=O)c1ccc(N2CCCC2)c(NC(=O)NCc2ccc(C)cc2)c1 | ? | -13%
COCCCNC(=O)c1cnn(-c2ccccc2Cl)c1C1CCN(C(=O)OC(C)(C)C)CC1 | 0% | -19%
Cc1cccc(N2CCN(C(=O)C3CCN(S(=O)(=O)c4c(C)noc4/C=C/c4ccccc4F)CC3)CC2)c1C | -18% | 2%
COc1cc2c(cc1OC)C(COc1ccc3c(C)cc(=O)oc3c1)N(C(=O)c1ccc(Cl)cc1)CC2 (stereo not drawn) | -18% | -22%
CCn1cc(C(=O)Nc2ccc(C(C)C)cc2)c2cc(OC)c(OC)cc2c1=O | -25% | ?
Cc1ccc(C2=Nc3ccccc3N(CC(=O)NCc3ccc(Cl)cc3)C(=O)C2)cc1C | 40%[activator] | -12%
Cc1ccc(C(=O)c2cn(Cc3ccccc3)c3c(F)cc(F)cc3c2=O)cc1 | ? | -4%
CCOC(=O)C1=C(CS(=O)(=O)c2c(C)cc(C)cc2C)NC(=O)NC1c1cccc(OC)c1 (stereo not drawn) | -15% | -21%
COCCn1c(SCC(=O)Nc2ccc(C(F)(F)F)cc2)nc2c([nH]c3ccccc32)c1=O | -13% | ?
O=C(NCc1ccc(F)cc1)c1ccc2nc(N3CCCCC3)sc2c1 | 8.9µM* | -3%
Cc1ccc(NC(=O)Cn2cc(C(=O)C3CC3)c3ccccc32)cc1 | -4% | -15%
CCC(Oc1ccccc1)C(=O)Nc1nnc(S(=O)(=O)N(CC)CC)s1 (stereo not drawn) | -25% | 6%
CC(C)(C)C(=O)OCOP(=O)(COCCn1cnc2c(N)ncnc21)OCOC(=O)C(C)(C)C | -24%&-25% | .
CCCCC(=O)Nc1cc(-c2nc3ccccc3o2)ccc1OC | 6% | ?
COc1ccc(CNC(=O)c2ccc3c(c2)CCN3S(=O)(=O)c2ccccc2)cc1 | ? | ?
CCc1cccc2c(-c3ccccc3)nc(SCC(=O)Nc3ccccc3)nc12 | 5% | -5%
CCC(C(=O)NCCc1ccccc1)n1nc(C)n2c(cc3sccc32)c1=O (stereo not drawn) | -16% | -11%
Clc1ccccc1CSc1nncn2c1cc1occc12 | 16% | -38%
Cc1ccc2nc(N(Cc3cccnc3)C(=O)COc3ccccc3)sc2c1 | 7% | 4%
O=C(O)CCc1ccc(-c2ccc(Br)cc2)n1-c1ccccc1O | -7% | ?
O=C(c1ccc2c(c1)CCN2S(=O)(=O)c1ccccc1)N1CCN(c2cccc(Cl)c2)CC1 | ? | -40%
CCOc1ccc(C(=O)c2cn(Cc3ccccc3OC)c3ccc(F)cc3c2=O)cc1 | -5% | ?
Cc1ccc(C)c(N2CCN(C(=O)Cn3ncc4ccsc4c3=O)CC2)c1 | ? | ?
Cc1ccccc1CNC(=O)CN1C(=O)CCCc2ccccc21 | 6% | -2%
CCC(Sc1ncccc1C(=O)Oc1ccccc1Cl)C(=O)Nc1ccccc1OC (stereo not drawn) | -27% | ?
CCOC(=O)c1c(C)[nH]c(CCC(=O)NCc2ccc(CC)cc2)c1C | ? | -26%
O=C1CCC(N2C(=O)c3ccccc3C2=O)C(=O)N1 (stereo not drawn) | 3%&12% | .
CCC(=O)N1CCc2cc(CNC(=O)Nc3cc(OC)c(OC)c(OC)c3)ccc21 | -28% | -9%
COc1cc(CN(C(=O)c2ccccc2)c2ccccn2)cc(OC)c1OC | -14% | -36%
CC1=C(C(=O)N2CCN(c3cccc(C(F)(F)F)c3)CC2)C2(CCCCC2)OC1=O | -10% | ?
Cc1ccc(-c2cc3ncc(C(=O)c4cc([N+](=O)[O-])ccc4O)cn3n2)cc1 | -7% | ?
(cont.)
SMILES | HTT promoter inh | PMP22 txn prim
CCOC(=O)CNS(=O)(=O)c1cc(-c2nnc(Nc3cccc(O)c3)c3ccccc23)ccc1C | -2% | ?
CCOc1ccc(CCNC(=O)CCc2cn(Cc3ccc(C)cc3)c3ccccc23)cc1 | ? | -14%
CN1CCN2c3ncccc3Cc3ccccc3C2C1 (stereo not drawn) | -7% | .
Cc1cc(C)cc(NC(=O)C(=O)NCCc2sc(-c3cccc(F)c3)nc2C)c1 | -17% | ?
Cn1nc(C(=O)N2CCN(c3ccccc3F)CC2)c2c1-c1ccccc1S(=O)(=O)C2 | 13% | 16%
Cc1ccc(-c2nc(-c3cc4cccc(OCc5cccc(C)c5)c4oc3=O)no2)cc1 | -2% | ?
Cc1ccc(CCNC(=O)CN(c2ccc(C)cc2)S(=O)(=O)c2c(C)noc2C)cc1 | -25% | -2%
Cc1ccc(-c2nc3ccccc3o2)cc1NC(=O)c1cccc2c(Cl)cccc12 | -6% | ?
Cc1ccc(NC(=O)COc2ccc3oc4c(c3c2)CCCC4)c(C)c1 | -4% | ?
Cc1cccc(Cn2cnc3c(oc4ccccc43)c2=O)c1 | 2% | 2%
COc1ccc(CNC(=O)c2nn(C)c3c2CSc2ccccc2-3)cc1 | -16% | -13%
CCc1ccc(CNC(=O)c2nn(-c3ccc(C)c(C)c3)nc2CO)cc1 | -4% | -33%
O=C(CN1C(=O)COc2ccc(S(=O)(=O)N3CCCCC3)cc21)NCCc1ccc(Cl)cc1 | 2% | ?
Cc1ccccc1CCNCc1c(C(=O)O)c(C)n(Cc2c(F)cccc2Cl)c1C | -14% | -14%
Cc1cc(NC(=O)c2cc(-c3ccc(Cl)cc3)on2)n(-c2ccccc2)n1 | 2% | -5%
Cc1cc(=O)n(CC(=O)N2CCN(c3ccccc3F)CC2)c2c1c(C)nn2C | 20µM* | ?
O=C(CSc1nc(-c2ccccc2)c2ccccc2n1)Nc1ccc(F)cc1 | 3% | -32%
Cc1ccc(S(=O)(=O)NCCSc2nnnn2-c2ccccc2)cc1 | -8% | -39%
COc1ccc2c(c1)-c1nc(NC(=O)c3ccccc3F)sc1CC2 | -1% | ?
CCN(CC)C(=O)Cn1c(=O)nc(-c2ccccc2F)c2cc(Cl)ccc21 | -6% | -11%
Cc1ccc(CSc2ncc(Cl)c(C(=O)NCCc3ccc(S(N)(=O)=O)cc3)n2)cc1 | ? | ?
Cc1csc2nc(-c3cccc(NS(C)(=O)=O)c3)cn12 | 15% | -11%
CCc1ccc(C(=O)c2cn(CC(=O)NC3CCCCC3)c3nc(C)ccc3c2=O)cc1 | -6% | 5%
Cc1cccc(Cn2c(=O)n(Cc3ccccc3)c(=O)c3oc4ccccc4c32)c1 | -10% | -17%
CCCCNC(=O)CSc1nc2ccccc2nc1Cc1ccccc1 | -10% | -33%
Cc1nn(C)c(C)c1CCNC(=O)Nc1ccccc1C(F)(F)F | -17% | 42%
CCOc1ccccc1CNC(=O)CCc1cn(C)c2ccccc12 | -26% | 0%
COc1ccccc1CNC(=O)CN1C(=O)CSc2c1c(C)nn2-c1ccccc1 | -9% | 18%
CCc1cccc(C)c1NC(=O)CCn1nc(C)c2c(C)n(-c3ccccc3)nc2c1=O | -36% | -1%
Cc1c(NC(=O)Nc2ccc(C#N)cc2)c(=O)n(-c2ccccc2)n1C | -18% | -21%
CCCn1c(=O)c2sccc2n2c(CCCC(=O)N3CCN(c4ccccc4OC)CC3)nnc12 | -8% | -4%
Cc1ccc(-n2nc(CO)c(C(=O)NCCC(C)C)n2)cc1C | ? | -2%
COC(=O)c1cc(S(=O)(=O)N2CCN(c3cccc(C)c3)C(C)C2)cn1C (stereo not drawn) | -13% | -31%
CSc1ccc(CCNC(=O)c2ccc(CS(=O)(=O)c3ccc(Br)cc3)o2)cc1 | ? | ?
Fc1ccc(CNc2ncnc3ccc(F)cc23)cc1 | -34% | .
Cc1ccccc1NC(=O)c1c(NC(=O)c2ccccc2)sc2c1CCC2 | 9% | ?
CCc1ccc(S(=O)(=O)Nc2cccc(-c3ccc(OC)nn3)c2)s1 | ? | -19%
Cc1nc2c(C(=O)NCc3ccccc3Cl)cnn2c(C)c1Cc1ccccc1 | 5% | ?
CC(C)(C)OC(=O)N1CCC(c2c(C(=O)N3CCN(c4ccc(Cl)cc4)CC3)cnn2-c2ccc(F)cc2F)CC1 | -12% | ?
CC(=O)c1ccc(Nc2nc3c(S(=O)(=O)c4ccccc4)nnn3c3ccc(Cl)cc23)cc1 | -21% | ?
O=C1CCc2cc(S(=O)(=O)NCc3ccc(F)cc3)cc3c2N1CC3 | -19% | ?
COc1ccc(-c2c3c(nc4sc(C(=O)Nc5cccc(OC)c5)c(N)c24)CC(C)(C)CC3=O)cc1 | -5% | ?
N#Cc1ccc(CSc2nc3c(c(=O)[nH]2)CCC3)cc1 | -10% | 3%
CCOc1cccc(NC(=O)C2CC(=O)N(C)C(=Nc3ccc(F)cc3)S2)c1 (stereo not drawn) | ? | 2%
Cc1csc2nc(CCNS(=O)(=O)c3ccc(F)cc3)cn12 | -4% | -7%
CCc1ccc(S(=O)(=O)c2nnn3c2nc(Nc2cc(OC)ccc2OC)c2sccc23)cc1 | -2% | 1%
Cc1cccc(OCc2ccc(-c3nc(C#N)c(N4CCN(c5ccccc5)CC4)o3)o2)c1 | -22% | -24%
Cc1cc(C)c2c(CC(=O)Nc3c(C(=O)c4ccc(F)cc4)oc4ccccc34)coc2c1 | 7% | -6%
COc1cccc(Cn2c(CNS(=O)(=O)c3ccc(C(C)(C)C)cc3)nc3cccnc32)c1 | -13% | ?
Cc1c(Cl)cccc1NC(=O)C(=O)NCCc1csc2nc(-c3ccccc3F)nn12 | -30% | ?
O=C(O)CCn1cnc2onc(-c3cc(F)cc(F)c3)c2c1=O | -18% | -3%

Six structures out of the list, arranged by heavy-atom count, high to low.
SMILES | HTT promoter inh | PMP22 txn prim
COc1cccc(Cn2c(CNS(=O)(=O)c3ccc(C(C)(C)C)cc3)nc3cccnc32)c1 | -13% | ?
Cc1c(Cl)cccc1NC(=O)C(=O)NCCc1csc2nc(-c3ccccc3F)nn12 | -30% | ?
O=C1CCc2cc(S(=O)(=O)NCc3ccc(F)cc3)cc3c2N1CC3 | -19% | ?
O=C(O)CCn1cnc2onc(-c3cc(F)cc(F)c3)c2c1=O | -18% | -3%
Cc1csc2nc(CCNS(=O)(=O)c3ccc(F)cc3)cn12 | -4% | -7%
N#Cc1ccc(CSc2nc3c(c(=O)[nH]2)CCC3)cc1 | -10% | 3%
